Rango-impB inh = Rango-importin beta binding inhibition | Q14974 | Rango CFP/YFP FRET sensor + importin beta, 45 min | Potency, µM (series often up to 92.2 µM), inactives show at the highest dose inhibition of complex formation | hit rate 0.031% among 340,000 | AID 540263; active = rising FRET ratio curve, often small or poorly fitted; inconclusive = mostly compound fluorescence or quenching in the first reads; inactive = flat curves in all reads;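 further: potency means the concentration at half of the fitted maximal effect; 0% = DMSO wells and 100% = buffer wells lacking importin beta; nearly all actives have a fitted effect of over 15% in size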
Target sequence (Q14974 whole entry, looked up): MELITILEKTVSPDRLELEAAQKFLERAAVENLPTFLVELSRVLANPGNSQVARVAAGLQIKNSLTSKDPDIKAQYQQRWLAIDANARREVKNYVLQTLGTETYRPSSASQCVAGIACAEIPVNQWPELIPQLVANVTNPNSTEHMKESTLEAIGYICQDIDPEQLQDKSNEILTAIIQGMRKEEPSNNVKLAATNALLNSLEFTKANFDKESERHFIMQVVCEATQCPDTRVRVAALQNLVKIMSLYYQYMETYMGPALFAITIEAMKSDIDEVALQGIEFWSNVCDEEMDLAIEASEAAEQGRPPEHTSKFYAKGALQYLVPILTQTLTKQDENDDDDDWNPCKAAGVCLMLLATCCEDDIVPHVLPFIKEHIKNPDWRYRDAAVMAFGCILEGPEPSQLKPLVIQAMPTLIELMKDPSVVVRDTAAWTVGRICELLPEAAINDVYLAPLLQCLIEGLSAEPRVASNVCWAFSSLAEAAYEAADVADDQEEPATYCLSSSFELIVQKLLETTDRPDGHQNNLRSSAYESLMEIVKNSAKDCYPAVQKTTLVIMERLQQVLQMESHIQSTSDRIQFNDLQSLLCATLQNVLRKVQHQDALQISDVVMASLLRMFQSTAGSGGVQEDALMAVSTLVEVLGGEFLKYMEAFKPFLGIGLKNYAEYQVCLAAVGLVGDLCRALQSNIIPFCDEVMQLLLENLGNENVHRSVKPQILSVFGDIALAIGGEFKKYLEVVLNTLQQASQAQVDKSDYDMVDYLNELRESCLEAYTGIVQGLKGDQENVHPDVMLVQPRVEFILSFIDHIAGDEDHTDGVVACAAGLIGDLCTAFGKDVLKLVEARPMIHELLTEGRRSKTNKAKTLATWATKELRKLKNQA
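FRET biosensor Rango (snurportin 1 IBB between N-terminal EYFP and C-terminal Cerulean), 50 nM in PBS/1 mM DTT/0.02% Tween-20/0.1% BSA, preincubated 5 min RT with compound; 0.125 microM importin beta added, 45 min RT, CFP/YFP FRET ratio read.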
GLA inh pH 4.5 = alpha-galactosidase A (human) inhibition, pH 4.5; 230,000 tested, under 10 active; AID 1467; activity change, negative = inhibition, % at 105 µM; purified enzyme, 4-MU-alpha-Gal fluorescence, pH 4.5; inconclusive = small, poorly fitted or top-dose-only inhibition, or a rising curve; inactive = flat fitted curve, though single readings scatter; no compound was filed as active;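 further: 0% = full activity with enzyme and -100% = basal without enzyme; dose as in the result columns while the protocol names 77 µM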
Rango dissoc inh = prevents RanGTP from dissociating the Rango-importin beta complex; O95149+P62826; Biochemical FRET Rango-importin beta, RanGTP-induced dissociation; Potency, µM (top dose mostly 46.1 µM), for the others: at the highest dose activity change, negative = inhibition; hit rate 0.071% among 340,000; active means falling FRET ratio curve, often poorly fitted, with flat reads before Ran was added; inconclusive means other falling curves, or compound fluorescence or quenching; inactive means flat or rising ratio curve;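 further: potency means the concentration at half of the fitted maximal effect; % of control where 0% means no effect; nearly all actives have a fitted effect of over 45% in size; -100% = wells without RanGTP and RCC1; the record marks most hits as doubtful in a second field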
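FRET read at 45 min, room temperature: inhibitors block the CFP/YFP signal rise when RanGTP (0.6 uM Ran, 2 mM GTP, 0.2 uM RCC1) frees Rango (0.1 uM) from importin beta (0.25 uM). Pre-read after 5 min compound exposure flags interference.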
miR-21 reporter = miR-21 reporter, rising signal; HeLa miR-21 FLuc reporter, luciferase, 48 h; Potency, µM (highest dose often 38.3 µM), for inactives: at the top dose reporter change, positive = more light; 340,000 tested, under 10 active; AID 2288; active = well fitted rising curve with a large enough effect; inconclusive = small, poorly fitted or top-dose-only effect; inactive = no such curve, though single readings can be large or run the other way;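 further: % of control where 0% means no effect; miR-21 action dims this reporter so a rising signal means less miR-21 action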
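HeLa cells stably expressing CMV-driven firefly luciferase with a downstream miR-21 binding sequence, endogenously expressing miR-21, were treated with titrations (up to about 40uM final) for 48 hours at 37 degree Celsius. Luciferase luminescence was read after lysis.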
* marks the source's active call; other numbers are inactive results. Not all compounds are listed. The share of hits here may be higher or lower than overall.

For O=C(NCCc1ccccc1F)C1CCC(=O)N(Cc2ccccc2F)C1 (configuration not stated) the results were Rango-impB inh -0.6%, Rango dissoc inh 10% and miR-21 reporter -7%.
CSc1nnc(-c2ccc([N+](=O)[O-])cc2)o1 was read as Rango-impB inh 7.1%, GLA inh pH 4.5 -2, Rango dissoc inh -9% and miR-21 reporter -17%.
Screening CNS(=O)(=O)c1cccc(C(=O)OCC(=O)NC(C)CCc2ccccc2)c1 (configuration not stated) returned Rango-impB inh 0.0%, Rango dissoc inh 2% and miR-21 reporter -4%.
Screening COc1ccc(NC(=O)CCc2ccccc2)cc1NC(=O)c1ccco1 returned Rango-impB inh 2.5%, GLA inh pH 4.5 -11, Rango dissoc inh 6% and miR-21 reporter 3%.
`Cc1cc(C(=O)N/N=C2\CC(=O)c3ccccc32)c(C)n1-c1ccccc1` gave Rango-impB inh 2.2%, GLA inh pH 4.5 2, Rango dissoc inh 25% and miR-21 reporter -47%.
Screening CCOc1nc(Nc2ccc([N+](=O)[O-])cc2)nc(NC(C)(C)C)n1 returned Rango-impB inh 0.2%, GLA inh pH 4.5 -1, Rango dissoc inh -3% and miR-21 reporter -2%.
Screening Cc1nn(C)c(C)c1CN(C)S(=O)(=O)c1ccc2ccccc2c1 returned Rango-impB inh inconclusive, GLA inh pH 4.5 -7, Rango dissoc inh inconclusive and miR-21 reporter 15%.
For Cc1cccc(NC(=O)C(=O)N/N=C/c2ccncc2)c1 the results were Rango-impB inh 3.0%, GLA inh pH 4.5 -13, Rango dissoc inh 12% and miR-21 reporter 2%.
For COc1ccc(NC(=O)Nc2cc(C(=O)O)ccc2N2CC3CC(C2)c2cccc(=O)n2C3)c(OC)c1 (configuration not stated) the results were Rango-impB inh -0.9%, Rango dissoc inh -8% and miR-21 reporter 0%.
O=C1c2ccccc2C(=O)N1Nc1ccccc1 was read as Rango-impB inh 0.7%, GLA inh pH 4.5 6, Rango dissoc inh -12% and miR-21 reporter 5%.

Quoted at random: two records from the list, in no set order.
Screening CNS(=O)(=O)c1cccc(C(=O)OCC(=O)NC(C)CCc2ccccc2)c1 (configuration not stated) returned Rango-impB inh 0.0%, Rango dissoc inh 2% and miR-21 reporter -4%.
Screening CCOc1nc(Nc2ccc([N+](=O)[O-])cc2)nc(NC(C)(C)C)n1 returned Rango-impB inh 0.2%, GLA inh pH 4.5 -1, Rango dissoc inh -3% and miR-21 reporter -2%.

Next section
For COC(=O)C1CCN(C(=O)CSc2ccccc2)CC1 the results were Rango-impB inh 0.4%, GLA inh pH 4.5 9, Rango dissoc inh 4% and miR-21 reporter -2%.
COCC(C)n1c(SCC(=O)Nc2sccc2C(N)=O)nc2ccccc2c1=O (configuration not stated) was read as Rango-impB inh 0.0% and Rango dissoc inh -7%.
NC(=O)C1=C[C@H](c2coc3ccccc3c2=O)C[C@H](OCCCCO)O1 was read as Rango-impB inh -0.3%, GLA inh pH 4.5 4, Rango dissoc inh 17% and miR-21 reporter 1%.
For COc1ccc(CCNC(=O)COC(=O)c2ccco2)cc1OC the results were Rango-impB inh 6.2%, GLA inh pH 4.5 15, Rango dissoc inh 0% and miR-21 reporter -2%.
O=C(N/N=C/c1ccc(Sc2ccccn2)o1)c1cc2ccccc2cc1O was read as Rango-impB inh 0.8%, GLA inh pH 4.5 -12, Rango dissoc inh -14% and miR-21 reporter -20%.
For Cc1cccc(-c2n[nH]c(=S)n2-c2ccccc2)c1[N+](=O)[O-] the results were Rango-impB inh 4.6%, GLA inh pH 4.5 -12, Rango dissoc inh -2% and miR-21 reporter -18%.
For O=C(CN1CCN(c2ccc(O)cc2)CC1)Nc1cc(S(=O)(=O)N2CCOCC2)ccc1Cl the results were Rango-impB inh 2.7%, GLA inh pH 4.5 3, Rango dissoc inh 7% and miR-21 reporter -11%.
For Cc1c(/C=N\NC(=O)C2(C)CC2(Cl)Cl)cnn1C (configuration not stated) the results were Rango-impB inh -0.7%, GLA inh pH 4.5 -2, Rango dissoc inh 38% and miR-21 reporter -9%.
Screening COc1cccc(N/C=C/C(=O)c2ccc(OC)c(OC)c2)c1 returned Rango-impB inh inconclusive, Rango dissoc inh inconclusive and miR-21 reporter -54%.
Screening COc1cc(/C=N/NC(N)=O)ccc1OC(=O)c1cccs1 returned Rango-impB inh 8.5%, GLA inh pH 4.5 6, Rango dissoc inh 14% and miR-21 reporter -2%.
CCCCCOc1ccc(C(=O)CCC(=O)Nc2ccc(NC(C)=O)cc2)cc1 was read as Rango-impB inh 1.1%, Rango dissoc inh -3% and miR-21 reporter -2%.
Screening CCc1ccc(NC(=O)N(Cc2ccco2)C(C)c2cccs2)cc1 (configuration not stated) returned Rango-impB inh -1.0%, GLA inh pH 4.5 -2, Rango dissoc inh 1% and miR-21 reporter -37%.
NC(=O)c1cc(S(=O)(=O)NCCc2ccccc2)cs1 was read as Rango-impB inh 4.0%, Rango dissoc inh -3% and miR-21 reporter 1%.
Screening CS(=O)(=O)Oc1ccc(/C=N/NC(=O)c2ccncc2)cc1 returned Rango-impB inh -2.7%, GLA inh pH 4.5 -9, Rango dissoc inh 5% and miR-21 reporter 1%.
Screening CC(=NCc1ccncc1)C1=C(O)c2ccccc2C1=O returned GLA inh pH 4.5 -4 and miR-21 reporter -41%.
For COc1ccccc1N1CCN(C2CCN(C(=O)c3cccs3)CC2)CC1 the results were Rango-impB inh 2.1%, GLA inh pH 4.5 -4, Rango dissoc inh 8% and miR-21 reporter -9%.
`COc1cccc(NC(=O)CSc2nc3ccccc3cc2Cc2ccccc2)c1` gave Rango-impB inh 1.8%, GLA inh pH 4.5 -24, Rango dissoc inh 4% and miR-21 reporter 3%.
`CCCn1c(N2CCN(CC(=O)c3c(C)n(C)c4ccccc34)CC2)nc2c1c(=O)[nH]c(=O)n2C` gave Rango-impB inh -3.7%, GLA inh pH 4.5 4, Rango dissoc inh -13% and miR-21 reporter -12%.
For CC(C)CC(O)(CC(C)C)C(=O)NNc1ccccc1 the results were Rango-impB inh -4.1%, GLA inh pH 4.5 9, Rango dissoc inh -15% and miR-21 reporter -10%.
O=C(Nc1ccccc1Sc1ccccc1)c1ccccc1 was read as Rango-impB inh -2.7%, GLA inh pH 4.5 -5, Rango dissoc inh 1% and miR-21 reporter -4%.
Screening COc1ccc(S(=O)(=O)N(CC(=O)NCc2cccnc2)Cc2ccccc2)cc1 returned Rango-impB inh 8.5%, GLA inh pH 4.5 1, Rango dissoc inh 1% and miR-21 reporter 1%.
Screening COc1ccc(OC)c(-n2nnnc2SCC(=O)Nc2ccccc2N2CCOCC2)c1 returned Rango-impB inh 1.4%, GLA inh pH 4.5 3, Rango dissoc inh 4% and miR-21 reporter -6%.
COc1cc(CO)cc(Br)c1OCC(=O)Nc1cccc2ccccc12 was read as Rango-impB inh -1.5%, GLA inh pH 4.5 -8, Rango dissoc inh 1% and miR-21 reporter 2%.
Screening Nc1cccc(CP(=O)(c2ccccc2)c2ccccc2)c1 returned Rango-impB inh inconclusive and Rango dissoc inh 1%.
`CC1=C(C#N)C(=O)N(C2CCS(=O)(=O)C2)C(=O)/C1=C\c1ccc(C)o1` (configuration not stated) gave GLA inh pH 4.5 -25 and miR-21 reporter -2%.
C/C(CC(=O)Nc1ccc(Cl)cc1C(F)(F)F)=N\NC(N)=S was read as Rango-impB inh -1.2%, GLA inh pH 4.5 -3, Rango dissoc inh 8% and miR-21 reporter 1%.
O=C(NCc1cccnc1)C1CCN(c2ccc(S(=O)(=O)N3CCOCC3)cc2Cl)CC1 was read as Rango-impB inh -1.7%, GLA inh pH 4.5 -6, Rango dissoc inh -4% and miR-21 reporter 21%.
`CN(C)S(=O)(=O)c1cc(C(=O)Nc2ccn(C)n2)c(Cl)cc1Cl` gave Rango-impB inh -5.7% and Rango dissoc inh 10%.
`COc1ccc(N2C(=O)C3CCCN3C2c2cccc(C)c2)cc1Cl` (configuration not stated) gave Rango-impB inh 1.3%, GLA inh pH 4.5 -4, Rango dissoc inh -1% and miR-21 reporter 3%.
O=C(COc1ccccc1Cl)Nc1ccccc1C(=O)Nc1cccc(C(=O)O)c1 was read as Rango-impB inh 0.8%, Rango dissoc inh 13% and miR-21 reporter -35%.
O=C(CSc1nnnn1-c1ccccc1)N1CCc2ccccc2C1 was read as Rango-impB inh 3.5%, GLA inh pH 4.5 1, Rango dissoc inh 0% and miR-21 reporter -9%.
`C=CCn1c(SCc2ccccc2C#N)nnc1-c1cc(Br)ccc1O` gave Rango-impB inh -3.1%, GLA inh pH 4.5 3, Rango dissoc inh -17% and miR-21 reporter 11%.
For CN(C)Cc1nc2ccccc2c(=O)n1CC(=O)Nc1cccc(S(=O)(=O)N2CCOCC2)c1 the results were Rango-impB inh 0.0%, GLA inh pH 4.5 7, Rango dissoc inh 0% and miR-21 reporter 1%.
Cc1nn2c(CN(C(=O)COc3ccccc3)c3ccccc3)nnc2c2ccccc12 was read as Rango-impB inh 11%, GLA inh pH 4.5 -1, Rango dissoc inh -14% and miR-21 reporter -8%.
Screening Cc1cnc(NC(=O)c2ccncc2)s1 returned Rango-impB inh 0.8%, GLA inh pH 4.5 -3, Rango dissoc inh 9% and miR-21 reporter -24%.
Screening c1ccc2c(c1)oc1c(Nc3ccc4c(c3)OCO4)ncnc12 returned Rango-impB inh -1.4%, GLA inh pH 4.5 5, Rango dissoc inh 2% and miR-21 reporter -70%.
Screening C=CCn1c(SCC(N)=O)nnc1-c1cccc(Br)c1 returned Rango-impB inh -0.3%, GLA inh pH 4.5 6, Rango dissoc inh 10% and miR-21 reporter -4%.
COc1ccc(S(=O)(=O)N(C)Cc2cccs2)cc1Br was read as Rango-impB inh 3.7%, GLA inh pH 4.5 -8, Rango dissoc inh -9% and miR-21 reporter -6%.
`COc1ccc(Br)cc1S(=O)(=O)n1nc(C)cc1C` gave Rango-impB inh 2.0%, Rango dissoc inh -11% and miR-21 reporter -4%.
Screening O=C1CCCc2c1cc(C(=O)NCc1ccco1)c(=O)n2-c1ccccc1 returned Rango-impB inh 2.4%, GLA inh pH 4.5 9, Rango dissoc inh 0% and miR-21 reporter -8%.
Screening Cc1ccc(S(=O)(=O)Oc2ccccc2/C=N/NC(=O)c2nn(C)cc2[N+](=O)[O-])cc1 returned Rango-impB inh 4.8%, GLA inh pH 4.5 -2, Rango dissoc inh -11% and miR-21 reporter -12%.
For COc1ccc(CC(=O)Nc2nc(-c3ccc(F)c(F)c3)cs2)cc1 the results were Rango-impB inh -0.5%, Rango dissoc inh 7% and miR-21 reporter 19%.
`COC(=O)c1ccccc1NC(=O)c1noc2c1CC(C(C)(C)C)CC2` (configuration not stated) gave Rango-impB inh -2.2%, GLA inh pH 4.5 -11, Rango dissoc inh -2% and miR-21 reporter -6%.
Screening c1nc(NCCN2CCOCC2)c2c3c(sc2n1)CCCCC3 returned Rango-impB inh -1.2%, GLA inh pH 4.5 -5, Rango dissoc inh -1% and miR-21 reporter -61%.
O=C(CN1C(=O)NC2(CCCCC2)C1=O)N1CCOCC1 was read as Rango-impB inh -2.8% and Rango dissoc inh -5%.
`CCOC(=O)c1c(C)n(O)c2ccc(Cl)cc2c1=O` gave Rango-impB inh inconclusive, GLA inh pH 4.5 2, Rango dissoc inh inconclusive and miR-21 reporter -7%.
Screening COc1cccc(C2CC(=O)Nc3cc4c(cc32)CCC4)c1 (configuration not stated) returned Rango-impB inh -0.4%, GLA inh pH 4.5 7, Rango dissoc inh 2% and miR-21 reporter inconclusive.
`C=CCN1C(=O)CC(C(=O)NC)SC1=Nc1ccc(C(=O)OCC)cc1` (configuration not stated) gave Rango-impB inh -5.5%, GLA inh pH 4.5 5, Rango dissoc inh 19% and miR-21 reporter -1%.
C/C(=N\NC(=O)CN(c1ccc(C)cc1)S(C)(=O)=O)c1cccs1 was read as Rango-impB inh 2.9%, GLA inh pH 4.5 9, Rango dissoc inh 0% and miR-21 reporter -9%.
For CN(C)N=Nc1ccc(-c2cn(Cc3ccccc3)cn2)cc1 the results were Rango-impB inh -0.3%, Rango dissoc inh -8% and miR-21 reporter -41%.
For CCCc1nnc(NC(=O)CCC(=O)NCc2ccc(OC)cc2)s1 the results were Rango-impB inh -0.7%, GLA inh pH 4.5 -2, Rango dissoc inh 13% and miR-21 reporter -1%.
Screening O=C(CCc1nc2ccccc2c(=O)[nH]1)N1CCN(c2ccc(F)cc2)CC1 returned Rango-impB inh inconclusive, GLA inh pH 4.5 -5, Rango dissoc inh 0% and miR-21 reporter 0%.

High-throughput results from PubChem.
